Screening data (PubChem BioAssay)
StopGo FLuc: FMDV 2A StopGo reporter, firefly signal; HEK cells with a luciferase reporter of 2A StopGo recoding; Potency, µM (series often up to 57.5 µM), for the others: at the top dose signal change, negative = less light; 120,000 compounds, 0.23% hits; AID 1745856; active = well fitted falling curve with a large enough effect; inconclusive = small, poorly fitted or top-dose-only effect; inactive = no such curve, though single readings can be large or run the other way; further: nearly all actives have a fitted effect of over 60% in size; overnight with compound
2A Renilla: FMDV 2A StopGo reporter, Renilla signal. 120,000 compounds, 0.32% hits. Potency, µM (doses to about 57.5 µM), inactives show at the top dose signal change, negative = less light. HEK cells with a luciferase reporter of 2A StopGo recoding. AID 1745857; active means well fitted falling curve with a large enough effect; inconclusive means small, poorly fitted or top-dose-only effect; inactive means no such curve, though single readings can be large or run the other way; further: nearly all actives have a fitted effect of over 55% in size; overnight with compound
Numbers without * were called inactive; u = inconclusive; & = joins results of further samples; [ ] = another dose, or the depositor's remark. On the % scale 0 is the no-effect control and ±100 the full control effect; potency means the concentration at half of the fitted maximal effect.

Screens in order: StopGo FLuc	2A Renilla
- CC(=O)c1ccc(NC(=O)Cn2nc(C(F)(F)F)c3c2CCCC3)cc1
    57.0%[activator]	0.8%
- NCCC12CC3CC(CC(C3)C1)C2
    10.5%	2.7%
- COc1cccc(Cn2c(CNS(=O)(=O)c3ccc(F)c(Cl)c3)nc3cccnc32)c1
    -13.5%	103.0%[activator]
- COc1cc2[nH]c(=O)n(Cc3ccc(C(=O)NCc4ccccc4)cc3)c(=O)c2cc1OC
    8.1%	-0.4%
- Cc1cc(C(=O)NC(C)c2cccc(OC(F)F)c2)sc1C (stereo not given)
    u	u
- O=C(c1cc2ccccc2[nH]1)N(Cc1cccc(Br)c1)C1CC1
    119.3%[activator]	-3.8%
- CCOc1ccc(Nc2oc(COc3ccc(Cl)cc3)nc2C#N)cc1
    -31.7%	-9.2%
- Cc1cccc(CSc2nc3ccncc3n2CC(=O)N(C)C2CCCCC2)c1
    -2.6%	-6.0%
- CSc1nc(N)c2c(n1)OC(N)=C(C#N)C2c1cc(Br)ccc1F (stereo not given)
    28.1%	3.2%
- CN(Cc1ccccc1)C(=O)c1cc(=O)c2ccccc2o1
    17.5%	23.8%
- Cc1cc(C)nc(Nc2ncc(O)n2-c2cccc(Cl)c2)n1
    4.8%	-2.6%
- CCCN(CCC)C(=O)Cn1c(SCc2cccc(F)c2)nc2cccnc21
    -0.7%	-2.4%
- O=C(NC1CCCCCC1)c1ccc(CS(=O)c2ccc(Br)cc2)o1 (stereo not given)
    -13.5%	-7.4%
- CC(C)CCNC(=O)CCn1c(=O)c2cccn2c2cccnc21
    -10.4%	-1.6%
- Cc1ccc(NS(=O)(=O)c2ccc(-c3cnc(C4CC4)o3)cc2)cc1N(C)C
    u	u

The list goes on:
Screens in order: StopGo FLuc	2A Renilla
- CC(=O)c1cccc(NC(=O)C(CC(C)C)NS(=O)(=O)c2ccc3c(c2)CCN3C(C)=O)c1 (stereo not given)
    -7.5%	-13.3%
- O=C(Nc1nnc(Cc2ccccc2)s1)C1CCCO1 (stereo not given)
    134.8%[activator]	-6.9%
- CCN(Cc1nc(-c2ccc(OC)c(OC)c2)no1)C(=O)Nc1ccc(C)cc1
    -1.0%	-3.4%
- COc1ccc(C(=O)Nc2ccc3nc(N4CCCC4)sc3c2)c(OC)c1
    140.4%[activator]	15.2%
- O=C(O)C(Cl)Cl
    -14.4%	-11.7%
- Cc1[nH]c2ccc(C(=O)N3CCC(C(N)=O)CC3)cc2c1C
    112.5%[activator]	43.3%[activator]
- CCOC(=O)N1CCC(NC(=O)c2cnn3c(C)c(Cc4ccccc4)c(C)nc23)CC1
    -0.8%	-2.0%
- Cc1ccccc1NC(=O)C(Sc1ccccc1)c1ccccc1 (stereo not given)
    3.8%	34.8%[activator]
- O=C(C(c1ccccc1)N1CCN(S(=O)(=O)c2cccs2)CC1)N1CCCC1 (stereo not given)
    -3.4%	-4.5%
- COc1cc(C=O)c(OC)cc1Br
    0.0%	37.3%[activator]
- CCc1c(C)sc(NC(=O)CCC(=O)O)c1C(=O)NC1CC1
    1.7%	-3.5%
- CCCCN(CC)c1nc(-c2ccccc2F)nc2ccccc12
    -6.8%	-6.8%
- Cc1nc2c(C(=O)NCCc3ccc(Cl)cc3)cnn2c(C)c1Cc1c(F)cccc1Cl
    5.6%	-6.2%
- O=C(O)c1cc(C2CC2)nc2c1cnn2-c1ccc(F)cc1
    4.4%	-0.5%
- COc1ccc(S(=O)(=O)NCCc2csc3nc(-c4cccc(C)c4)nn23)cc1F
    u	18.5%

(listing goes on)
Screens in order: StopGo FLuc	2A Renilla
- Clc1cccc(-c2nc3ccccn3c2Nc2ccc3c(c2)OCCO3)c1
    81.4%[activator]	61.7%[activator]
- Brc1ccc(-c2noc(CCc3nc4ccccc4[nH]3)n2)cc1
    19.5%	-5.6%
- COc1ccc(-n2nnc(-c3nc(-c4ccc5c(c4)OCO5)no3)c2C)cc1Cl
    0.0%	-7.7%
- CCOC(=O)c1c(S(=O)(=O)NCC(=O)Nc2ccc(C)c(N(C)C)c2)c(C)n(C)c1C
    -18.1%	34.4%[activator]
- Cc1cccc(OCCC(=O)NC(C)c2ccc(F)cc2)c1 (stereo not given)
    16.1%	12.1%
- COc1cc(C(=O)CCN(C)C)cc(OC)c1OC
    8.9%	15.8%
- O=C(/C=C/c1ccccc1OCc1cccnc1)c1ccc(O)cc1
    u	u
- COc1ccc(NC(=O)COC(=O)c2ccc3ccccc3n2)c(OC)c1
    26.9%	11.0%
- C(=N\N=C(c1ccccc1)c1ccccc1)/c1cn[nH]c1-c1ccccc1
    -8.1%	0.4%
- COC(=O)COc1ccc2c(=O)c(Oc3ccc(C(=O)OC)cc3)c(C)oc2c1
    26.5%	-8.7%
- CN(C)c1ccc(Nc2nc3ccccc3n3nnnc23)cc1
    4.9%	-2.7%
- CC(=O)Nc1ccc(NC(=O)CCc2c(C)nc3c(c(C)nn3-c3ccccc3)c2C)cc1
    2.4%	6.7%
- Cc1nc(-c2cc3ccc(OC(=O)C(C)C)cc3oc2=O)cs1
    63.7%[activator]	-2.3%
- COc1ccc(NC(=O)c2ccc(-c3nc(CSc4ccccc4)c(C)o3)cc2)cc1OC
    u	u
- CC(C)Cn1c(NCc2ccco2)nc2c1c(=O)[nH]c(=O)n2C
    -0.9%	10.2%

Next records
Screens in order: StopGo FLuc	2A Renilla
- CC(=O)N1CCN(c2nc3c(F)cc(F)cc3s2)CC1
    0.0%	-12.2%
- N#Cc1ccccc1OCC(=O)NCc1ccccc1
    151.1%[activator]	13.1%
- CCC1c2ccsc2CCN1C(=O)COc1ccc2ccc(=O)oc2c1 (stereo not given)
    -5.3%	-9.5%
- Nc1nccnc1C(=O)NCc1cccc(Cl)c1
    28.1%	-7.6%
- CCOC(=O)C1=C(CS(=O)(=O)c2ccc(C)c(C)c2)NC(=O)NC1c1ccccc1OCC (stereo not given)
    -14.3%	9.3%
- CCC(C(=O)Nc1sc2c(c1C#N)CCCC2)n1cnc2c1c(=O)n(C)c(=O)n2C (stereo not given)
    -9.6%	0.4%
- CC(=O)Nc1ccc(NC(=O)CC2C(=O)Nc3nc(C)nn32)cc1 (stereo not given)
    -1.3%	-4.3%
- CC(NC(=O)CCSCc1ccccc1F)c1ccccc1 (stereo not given)
    71.1%[activator]	17.6%
- Cc1ccc(OCc2ccc(C(=O)Nc3cccc(C)c3)cc2)cc1
    28.0%	4.5%
- CC(C)(C)C(=O)COC(=O)c1nn(-c2ccccc2)c(=O)c2ccccc12
    15.3%	11.8%
- Cc1c(C(=O)Oc2ccc(Br)cc2)sc2ncn(Cc3ccccc3F)c(=O)c12
    -14.6%	-6.9%
- N#Cc1ccc(NC(=O)c2cc(=O)c3ccccc3o2)cc1
    -4.8%	-2.5%
- CCN(C(=O)C(NS(=O)(=O)c1ccc(Br)s1)c1ccccc1)c1ccc(C)c(C)c1 (stereo not given)
    -20.8%	78.4%[activator]
- CCOc1ncccc1NC(=O)N1CCN(c2cnccn2)CC1
    3.6%	-7.4%
- Cc1ccc(NC(=O)c2cc(Cl)cc(Cl)c2)nc1
    146.7%[activator]	8.0%

(next part)
Screens in order: StopGo FLuc	2A Renilla
- CC(NC(=O)/C(C#N)=C\c1ccccc1)C12CC3CC(CC(C3)C1)C2 (stereo not given)
    u	u
- CCc1ccc(CN(C)C(=O)c2cc(=O)c3ccccc3o2)cc1
    20.1%	36.3%[activator]
- COc1ccc(-c2nc(C(=O)Nc3cccc(C(C)=O)c3)nn2-c2ccccc2Cl)cc1
    -13.0%	-7.0%
- COc1ccc(NC(=O)CCCSc2nc(-c3ccco3)cc(C(F)(F)F)n2)c(OC)c1
    u	u
- Cc1nc2ccc(C(=O)NC(C)c3ccccc3)cc2nc1C (stereo not given)
    182.8%[activator]	17.1%
- Cc1ccc(C2CCCN2C(=O)Cn2nc(C)c3ccccc3c2=O)cc1 (stereo not given)
    11.8%	11.8%
- O=[N+]([O-])c1cc(S(=O)(=O)N/N=C/c2cccs2)ccc1Cl
    109.4%[activator]	168.2%[activator]
- COc1ccccc1C(=O)Nc1ccc(C(=O)OCc2cc(=O)n3nc(C4CC4)sc3n2)cc1
    -17.5%	-9.3%
- FC(F)(F)c1ccc(Cl)c(N/N=C/c2cccc3ccccc23)c1
    10.0%	8.2%
- Cc1ccc(NC(=O)N2CCN(C)c3ncccc32)cc1C
    -6.7%	-7.9%
- CCOCCCNC(=O)C1CC(=O)N(CCc2c[nH]c3ccc(F)cc23)C1 (stereo not given)
    14.3%	8.6%
- Cc1ccc(CCNC(=O)Cn2ncc3c([nH]c4ccccc43)c2=O)cc1
    -17.8%	-10.6%
- CCc1ccc(-c2nc(CSCC(=O)NCCCOC)c(C)o2)cc1
    25.1µM*	-22.9%
- Cc1cc(Nc2ccccc2F)n2nc(-c3ccccc3)nc2n1
    20.0%	9.0%
- S=c1[nH]nc(CCCOc2ccc(Cl)cc2Cl)n1CC1CCCO1 (stereo not given)
    -17.3%	u

Next section:
Screens in order: StopGo FLuc	2A Renilla
- Cc1cc(O)c2c(C)c(CC(=O)N3CCCCC3)c(=O)oc2c1
    -9.1%&-4.2%	-11.7%&-1.3%
- CCOC(=O)c1ccc(Oc2c(C)oc3cc(OCC)ccc3c2=O)cc1
    17.1%	-3.7%
- CC(=O)c1cc(F)c(N2CCN(C(=O)c3c(F)cccc3F)CC2)cc1C
    10.8%	6.7%
- COc1ccc(-n2c(/C=C/c3cccc(F)c3)nc3ccccc3c2=O)cc1Cl
    u	u
- COc1ccc(OC)c(CNC(=O)Cn2ncc3c([nH]c4ccc(C)cc43)c2=O)c1
    -15.1%	-15.1%
- Cc1ccccc1NC(=O)CS(=O)(=O)c1cccc2nsnc12
    -8.4%	4.1%
- Cc1ccc2[nH]c(CSc3nnc(COc4ccccc4C)n3C)cc(=O)c2c1
    -13.9%	-4.9%
- CCCCc1c(C)nc(N2CCN(c3ccccc3F)CC2)[nH]c1=O
    2.1%	0.0%
- Cc1ccc(C(=O)Nc2cc(-c3nc4ncccc4o3)ccc2C)c(C)c1
    -5.4%	-16.2%
- Cc1ccc(NC(=O)Cn2c(=O)oc3cc(S(=O)(=O)N4CCCCC4)ccc32)c(Cl)c1
    -8.6%	30.0%[activator]
- CCN1CCN(C(=O)c2cnn(-c3cccc(C)c3)c2C2CCN(C(=O)OC(C)(C)C)CC2)CC1
    -15.9%	-10.8%
- CC(=O)Nc1ccc(C23CC4CC(CC(Cl)(C4)C2)C3)cc1
    89.4%[activator]	-7.7%[1.06 µM]
- CC(C)C(=O)Nc1ccc(Cl)cc1Cl
    3.8%	-7.5%
- COc1ccc2cc(C(=O)NCCCN(C)C)[nH]c2c1
    11.3%	-5.5%
- COc1cccc(CNC(=O)Cc2c(C)c3c(cc(C)c4c(C)coc43)oc2=O)c1
    -18.3%	-14.2%

Later entries
Screens in order: StopGo FLuc	2A Renilla
- Cn1cc(C(=O)N2CCN(S(=O)(=O)c3ccc(Br)cc3)CC2)c2ccccc21
    -30.5%	-10.3%
- CCCn1nc(C(=O)OCC(=O)Nc2ccc3c(c2)OC(F)(F)O3)c2ccccc2c1=O
    -7.4%	-10.5%
- CCc1cc(=O)oc2cc(C)cc(OC(C)C(=O)O)c12 (stereo not given)
    4.8%	-7.8%
- c1ccc(CCCOCC2CCNCC2)cc1
    -4.7%	-6.9%
- CC(C)Cc1nnc(NC(=O)c2cc(-c3ccccc3)nc3ccccc23)s1
    -2.8%	-12.7%
- CC(=O)c1cccc(NC(=O)CCc2nc(CSc3nc4cc(C)ccc4o3)no2)c1
    13.9%	-2.8%
- CCCn1nc(C(=O)OCC(=O)Nc2ncc(Cl)c(C)c2Cl)c2ccccc2c1=O
    2.4%	-7.3%
- CN(C)CCOC(=O)COc1ccc(Cl)cc1
    7.4%	-3.1%
- COc1ccccc1NC(=O)Cn1c(=O)n(-c2ccccc2Cl)c(=O)c2sc3ccccc3c21
    10.8%	17.3%
- CCOC(=O)c1cnc2c(Cl)c(Cl)ccc2c1NCCOC(=O)CC
    18.1%	12.7%
- CCCN(C(=O)c1cc2ccc3cccnc3c2[nH]1)c1ccc(F)cc1
    0.0%	-7.8%
- COc1ccc(CCNC(=O)Cn2nc(-c3ccc(Cl)cc3)ccc2=O)cc1OC
    -15.6%	-27.1%
- COc1ccc2c(c1)CCc1c(C(=O)Nc3c(C)nn(Cc4ccc(C)cc4)c3C)noc1-2
    28.0%	177.3%[activator]
- CCOc1cc(C2C(C#N)=C(N)Oc3cc(O)ccc32)ccc1OCc1ccccc1 (stereo not given)
    -16.3%	-17.5%
- CC(=O)Nc1ccc(/C=N/Nc2ccc(S(N)(=O)=O)cc2[N+](=O)[O-])cc1
    -2.5%	-22.6%

New compounds follow.
Screens in order: StopGo FLuc	2A Renilla
- Cc1ccc(CNC(=O)CSc2ncc3c(n2)-c2cc(Cl)ccc2N(C)S3(=O)=O)cc1
    -20.5%	-14.0%
- O=S(=O)(c1ccc2nc(Nc3cccc(F)c3)ccc2c1)N1CCCC1
    -1.7%	0.0%
- CCCCCn1c(CN2CCCC(C)C2)nc2c1c(=O)n(C)c(=O)n2C (stereo not given)
    1.2%	6.4%
- COc1cccc2cc(CC(=O)c3ccc(C(C)C)cc3)c(=O)oc12
    0.0%	25.9%
- CCc1nnc(Cn2cnc3scc(-c4ccc(Cl)cc4)c3c2=O)o1
    12.6%	2.1%
- Cc1cccc(Cn2c(Sc3nccc(C)n3)nc3c2c(=O)[nH]c(=O)n3C)c1
    0.0%	0.0%
- CCOC(=O)c1cnc2ccc(Br)cc2c1Nc1cccc([N+](=O)[O-])c1
    -19.7%	-13.9%
- COc1ccccc1NC(=O)c1c(NC(=O)c2cccs2)sc2c1CCC(C(C)(C)C)C2 (stereo not given)
    8.3%	3.4%

2 records picked at random from the list so far, as already listed:
Screens in order: StopGo FLuc	2A Renilla
- CCCCCn1c(CN2CCCC(C)C2)nc2c1c(=O)n(C)c(=O)n2C (stereo not given)
    1.2%	6.4%
- COc1cccc2cc(CC(=O)c3ccc(C(C)C)cc3)c(=O)oc12
    0.0%	25.9%

These rows are one share of the data; count on the stated rates, not on these rows.
